Source: PubChem BioAssay (ICCB-Longwood Screening Facility, Harvard Medical School)
Mtb MbtI inh – MbtI salicylate synthase inhibitors, primary screen, biochemical, fluorescence intensity; P9WFX0; purified MbtI enzyme, fluorescence intensity read-out; inhibition, %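 (about 17 µg/mL by stock and volumes)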; 0.89% of 100,000 active; AID 493033, 2011;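 active = above 50% in both replicates, above 80% if mildly self-fluorescent; inactive = the rest, strongly fluorescent compounds included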;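 note: 0% = mean of negative and 100% = mean of positive controls; one replicate is shown; some compounds called inactive have numbers as strong as hits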
Target sequence (P9WFX0 whole entry, looked up): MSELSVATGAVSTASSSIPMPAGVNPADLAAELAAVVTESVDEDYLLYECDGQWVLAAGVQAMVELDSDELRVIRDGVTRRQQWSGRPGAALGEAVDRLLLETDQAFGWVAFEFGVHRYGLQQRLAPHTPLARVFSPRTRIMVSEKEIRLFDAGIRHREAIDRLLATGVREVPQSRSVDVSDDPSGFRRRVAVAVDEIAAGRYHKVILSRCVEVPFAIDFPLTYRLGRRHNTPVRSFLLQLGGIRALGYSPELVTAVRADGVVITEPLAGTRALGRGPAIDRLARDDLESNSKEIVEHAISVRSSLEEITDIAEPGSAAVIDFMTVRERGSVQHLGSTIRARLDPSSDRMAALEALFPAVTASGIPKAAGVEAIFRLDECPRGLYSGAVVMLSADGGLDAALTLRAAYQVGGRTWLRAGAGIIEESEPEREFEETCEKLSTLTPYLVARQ
PV pol inh – poliovirus RdRp elongation inhibitors, primary screen, biochemical, fluorescence polarization, total intensity; Genome polyprotein (Poliovirus type 1 (strain Mahoney)), P03300; poliovirus polymerase elongation; stronger effect = lower value; % elongation, % (compound at 16.7 µg/mL); 0.66% of 150,000 active; in the data active = % elongation below about 90%; note: some results filed as inactive read as strong as hits
Mtb MenB inh – M. tuberculosis MenB inhibitors, primary screen, biochemical, absorbance; 1,4-dihydroxy-2-naphthoyl-CoA synthase (Mycobacterium tuberculosis (strain ATCC 25618 / …; MenB enzyme assay, absorbance read-out; some hits fall short of the stated cut; inhibition, %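 (about 12 µg/mL by stock and volumes)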; 0.43% of 100,000 active; AID 540299, 2011;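 active = mean of two replicates above 30%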;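 note: 0% = no compound and 100% = wells with inactive enzyme; the first replicate is given; strong numbers were not always called active; inactives centre near -10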
Target sequence (P9WNP5 whole entry, looked up): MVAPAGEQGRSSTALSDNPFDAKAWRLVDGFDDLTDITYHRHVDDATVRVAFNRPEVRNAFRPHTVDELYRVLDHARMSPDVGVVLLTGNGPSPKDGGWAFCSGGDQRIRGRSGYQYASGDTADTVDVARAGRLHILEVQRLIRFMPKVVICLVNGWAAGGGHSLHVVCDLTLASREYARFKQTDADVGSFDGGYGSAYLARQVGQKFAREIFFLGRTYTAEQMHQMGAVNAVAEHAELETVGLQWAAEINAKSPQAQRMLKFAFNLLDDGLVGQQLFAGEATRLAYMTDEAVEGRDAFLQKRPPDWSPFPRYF
PV pol inh intensity – further read-out of PV pol inh, marked with its call; % elongation; measured here: total intensity read-out; formula for this scale not given here;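 total fluorescence in place of polarization; lower means less elongation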
Numbers without * were called inactive; i = inactive; . = no result given; & = joins results of further samples.

SMILES	Mtb MbtI inh	PV pol inh	PV pol inh intensity	Mtb MenB inh
COc1ccc(C2CC3(CC(C)(C)NC(=O)N3)Oc3cc(O)ccc32)cc1 (configuration not stated)	-11.7	101.0	102.0	-0.5
COc1cccc(NS(=O)(=O)c2ccc3[nH]cc(C(=O)N4CCCCC4C)c(=O)c3c2)c1 (configuration not stated)	-71.2	101.0	101.0	1.9
CCOC(=O)c1c(NC(=O)COC(=O)Cc2cn3ccsc3n2)sc(C)c1Cc1ccc2c(c1)OCO2	36.4	100.0	104.0	-12.2
CCOC(=O)c1ccc(NC(=O)C(CC(C)C)N2C(=O)C3C4C=CC(C4)C3C2=O)cc1 (configuration not stated)	-7.9	101.0	102.0	-31.2
COc1ccc(Nc2cc(C(=O)NCCC(C)C)c3ccccc3n2)cc1	-6.8	103.0	102.0	-8.3
CN(C)C1(CNC(=O)C2=NN(C3CCS(=O)(=O)C3)C(=O)CC2)CCCCC1 (configuration not stated)	12.2	102.0	104.0	-26.9
CC1CN(Cn2nc(C(=O)O)c3ccccc32)CC(C)O1 (configuration not stated)	-4.6	100.0	102.0	-22.3
CCCn1cnc2cc(NCc3cccs3)ccc21	-9.4	100.0	103.0	-6.5
O=C(O)C1C2CC=CC2c2cc(Cl)cc3c2N1CC1CC=CC31 (configuration not stated)	-2.8	94.0	107.0	3.3
O=C(COC(=O)C1=COCCO1)Nc1ccc2[nH]c(=O)[nH]c2c1	1.7	98.0	98.0	4.7
COc1ccc(CN2CCc3c([nH]c4ccccc34)C2)cc1	-16.9	99.0	102.0	-13.0
S=c1nn[nH]n1CC1CCCO1 (configuration not stated)	37.0	107.0	120.0	-17.8
COCCNC(=O)C1Sc2nnc(C)n2NC1c1ccc(OC)c(Cl)c1 (configuration not stated)	-7.4	101.0	99.0	-27.0
NNC(=O)c1oc2nc(-c3ccccc3)cc(-c3ccccc3)c2c1N	-11.9	107.0	110.0	7.6
CC(C)OC(=O)Cn1c(=O)oc2ccccc21	.	106.0	98.0	-10.1
CCN(CC)C(=O)CSc1c2c(nc3ccc(Cl)cc13)CCCC2	5.2	105.0	107.0	-28.3
CC(=O)Nc1ccccc1C(=O)c1n[nH]nc1-c1ccc(Cl)cc1	-9.3	100.0	106.0	.
CCN(C(=O)CCn1c(=O)oc2ccccc21)c1ccccc1C	10.6	102.0	99.0	-19.4
O=S(=O)(c1ccc(O)cc1)N1CCOCC1	-13.6	103.0	110.0	2.5
COC(=O)c1ccc(OCC2c3cc(OC)c(OC)cc3CCN2C(=O)c2ccccc2)cc1 (configuration not stated)	3.0	101.0	103.0	-20.1
Cc1ccccc1Nc1cc(C)c(C#N)c2nc3ccccc3n12	.	96.0	100.0	-30.9
CC(C)n1c(SCC(N)=O)nc2ccccc21	-7.2	101.0	102.0	12.0
Cc1ccc(-n2nc(C)cc2NC(=O)CC#N)cc1	-2.0	102.0	105.0	.
Cc1c(OC2CCCCC2=O)ccc2c(-c3ccccc3)cc(=O)oc12 (configuration not stated)	3.6	100.0	101.0	.
O=C(CCn1nnc2ccccc21)Nc1nnc(COc2ccccc2F)s1	-8.2	105.0	98.0	-49.5
Later entries.
SMILES	Mtb MbtI inh	PV pol inh	PV pol inh intensity	Mtb MenB inh
c1ccc2c(c1)nc1n2CCN1	-7.9	101.0	103.0	-22.9
Cc1cc(C)cc(NC(=O)c2cc3ccccc3o2)c1	2.4	103.0	105.0	-43.3
O=C(Nc1ccc(Cl)c(Cl)c1)Nc1nc(-c2ccccc2)cs1	.	102.0	108.0	1.6
CC1CC(C)CN(C(=O)C2c3ccccc3C(=O)N(C)C2c2cccs2)C1 (configuration not stated)	-6.2	103.0	103.0	-7.0
Cc1nn(C(CC(=O)O)C(=O)O)c(C)c1Cl (configuration not stated)	-7.1	103.0	107.0	-6.8
CCCCN1COc2ccc3c4c(oc3c2C1)C(=O)c1ccccc1C4=O	-75.2	92.0	89.0	-1.1
Cc1cccc(Nc2ncc3c(n2)CC(C)CC3=O)c1 (configuration not stated)	9.2	102.0	102.0	20.6
Cc1ccc(C2=NN(C(=O)COC(=O)c3c(-c4ccccc4)noc3C)C(c3ccco3)C2)cc1 (configuration not stated)	10.5	101.0	102.0	-32.6
O=C(c1cc2cc(Br)cc(Br)c2oc1=O)N1CCCCCC1	.	103.0	101.0	0.7
CCNC(=O)c1cc(-c2ccccc2)nc2c1cnn2C(C)C	105.2	99.0	107.0	-1.1
Brc1cccc(-c2nnc3sc(CNCCc4ccccc4)cn23)c1	8.2	101.0	97.0	-11.3
Cc1cc(C)cc(NC(=O)CCNS(=O)(=O)c2ccc3[nH]c(=O)ccc3c2)c1	5.2	103.0	102.0	5.0
CC(C)(C)C(=O)c1cn(CC(=O)NCc2ccco2)c2ccccc12	-4.3	98.0	102.0	23.8
Oc1c(Br)cc(C2N=C(c3ccccc3)NO2)cc1Br (configuration not stated)	13.2	102.0	96.0	.
Cc1nnc(SCc2ccccc2C#N)o1	3.7	100.0	99.0	-4.6
CC1(C)Cc2c(c(N3CCOCC3)nc3sc(-c4ccc(C(=O)NN)o4)c(N)c23)CO1	-3.9	108.0	119.0	-13.3
CCC(=O)N1c2ccc(S(=O)(=O)N(C)Cc3ccccc3)cc2CC1C (configuration not stated)	-5.4	102.0	100.0	-18.3
Cc1ccc(S(=O)(=O)N(C)CC(O)Cn2c3ccccc3c3ccccc32)cc1 (configuration not stated)	24.1	103.0	103.0	-4.4
CCS(=O)(=O)c1ccc2oc(Nc3cc(C)cc(C)c3)nc2c1	13.8	103.0	99.0	-12.8
CCCN(CCC)C(=O)C(C)Oc1ccccc1 (configuration not stated)	-24.2	99.0	103.0	-23.7
OCCNCCSc1nnc(-c2cccs2)o1	21.0	97.0	100.0	-36.4
CCOc1ccc(/C=N\n2c(C)nnc2C)cc1	29.7	101.0	98.0	1.4
O=C1CCN(c2ccccc2)N1	30.8	104.0&104.0	110.0&108.0	7.5&11.7
CCN(CC)c1ncc2c(=S)[nH]c(=S)[nH]c2n1	-5.8	100.0	92.0	-9.4
CCc1ccc(NC(=O)N(Cc2c[nH]c3ccccc23)C2CCCC2)cc1	5.0	101.0	106.0	-9.9

Random excerpt: 3 entries already listed.
SMILES	Mtb MbtI inh	PV pol inh	PV pol inh intensity	Mtb MenB inh
COc1cccc(NS(=O)(=O)c2ccc3[nH]cc(C(=O)N4CCCCC4C)c(=O)c3c2)c1 (configuration not stated)	-71.2	101.0	101.0	1.9
Cc1ccc(S(=O)(=O)N(C)CC(O)Cn2c3ccccc3c3ccccc32)cc1 (configuration not stated)	24.1	103.0	103.0	-4.4
Oc1c(Br)cc(C2N=C(c3ccccc3)NO2)cc1Br (configuration not stated)	13.2	102.0	96.0	.

Later entries:
SMILES	Mtb MbtI inh	PV pol inh	PV pol inh intensity	Mtb MenB inh
CC(C)(C)NNC(=S)Nc1cccc(F)c1	-1.7	101.0	105.0	-42.0
CC(=O)Nc1ccc(NS(=O)(=O)c2cn(C)cn2)cc1	-1.6	102.0	102.0	4.1
Cc1nn(-c2cccc(C(F)(F)F)c2)c(Cl)c1/C=N/n1cnnc1	-3.2	102.0	102.0	.
CCOC(=O)c1ccc2ncc(C(=O)OCC)c(Nc3ccc(N(C)C)cc3)c2c1	-1.9	105.0	102.0	-13.4
O=C(NCC1OCCc2ccccc21)C(c1ccccc1)c1ccccc1 (configuration not stated)	-15.2	104.0	106.0	-11.9
Cc1ccccc1NC(=O)CC(C)C	.	105.0	111.0	-21.0
CN(C(=O)c1nn(-c2ccccc2)c(=O)c2ccccc12)C1CCS(=O)(=O)C1 (configuration not stated)	3.2	105.0	106.0	-10.8
Cc1nn(CC(=O)NCc2ccc(OC(C)C)cc2)c(=O)c2cc3occc3n12	-8.3	105.0	105.0	8.6
CCOC(=O)c1cc2c(=O)n3ccccc3nc2n(C2CCCCC2)c1=NC(=O)c1cccnc1	i	99.0	103.0	-34.8
O=C(NC(=S)c1ccccc1)C1CC1	74.4*	91.0	92.0	-37.5
Cc1cc(C)c(NC(=O)C2CC(=O)N(C3CCCC3)C2)c(C)c1 (configuration not stated)	-2.0	97.0	102.0	15.0
CN(C)C1(CNC(=O)Cc2n[nH]c(=O)c3ccccc23)CCCCC1	20.4	97.0	92.0	-19.6
NC(=O)NC(CC(=O)Nc1cccc(-c2nnc3n2CCCCC3)c1)c1ccccc1Cl (configuration not stated)	1.3	98.0	98.0	-26.9
CC(C)(C)c1ccc(CSc2nnc(-c3ccco3)n2-c2ccccc2)cc1	-6.7	102.0	104.0	-18.6
NCCSSCCN	23.5	101.0	104.0	-1.9
C=CCN(c1ccccc1)S(=O)(=O)c1cccc(C(=O)N2CCN(c3ncccn3)CC2)c1	-18.9	104.0	109.0	-29.7
C=CCSc1nc2c(c(=O)n1Cc1ccco1)C1(CCCCC1)Cc1ccccc1-2	-172.5	101.0	94.0	-4.5
CCOC(=O)c1oc2cc(O)cc(O)c2c(=O)c1-c1ccc(OC)c(OC)c1	5.7	100.0	101.0	-16.0
O=C(CSc1nc2ccccc2c(=O)n1-c1ccccc1)NCCCN1CCOCC1	1.1	104.0	106.0	-9.3
Cc1cc(C(=O)N(c2ccccc2)C(C)C2CC2)c(Cl)cc1Cl (configuration not stated)	-8.8	101.0	107.0	-3.2
COc1ccc(/C=N/n2cnc3c([nH]c4ccc(OC)cc43)c2=O)cc1	0.3	101.0	102.0	-10.0
CCC(=O)N1CCc2cc(S(=O)(=O)CCC(=O)N(C)c3ccc(OC)cc3OC)ccc21	-9.6	101.0	103.0	-32.2
CCC(CC)NC(=O)Cn1[nH]c(=O)c2ccccc2c1=O	-4.8	96.0	95.0	-9.2
O=C(Oc1ccc(N(Cc2ccco2)C(=O)Cn2cnc3ccccc3c2=O)cc1)c1ccccc1F	-1.1	102.0	101.0	3.6
CNc1nc(Oc2ccc(=O)[nH]n2)nc(N(C)C)n1	0.7	99.0	100.0	0.7
CN(C)CCCNCc1cccn1C	-0.1	85.0*	50.0*	4.2
CCn1c(=O)cc(SCC(=O)NC2CCCc3ccccc32)c2ccccc21 (configuration not stated)	1.4	104.0	107.0	-17.1
CCn1c(SCC(=O)Nc2ccc3c(c2)OCO3)nnc1C(C)NC(=O)c1ccccc1F (configuration not stated)	-2.9	101.0	102.0	8.1
CCC(C(=O)N1CCN(c2ncccn2)CC1)n1ccc2cc(S(=O)(=O)N3CCCCC3)ccc21 (configuration not stated)	-22.4	103.0	98.0	1.3

Filtered by structure: those above with an NH in an aromatic ring (12)
SMILES	Mtb MbtI inh	PV pol inh	PV pol inh intensity	Mtb MenB inh
COc1cccc(NS(=O)(=O)c2ccc3[nH]cc(C(=O)N4CCCCC4C)c(=O)c3c2)c1 (configuration not stated)	-71.2	101.0	101.0	1.9
O=C(COC(=O)C1=COCCO1)Nc1ccc2[nH]c(=O)[nH]c2c1	1.7	98.0	98.0	4.7
COc1ccc(CN2CCc3c([nH]c4ccccc34)C2)cc1	-16.9	99.0	102.0	-13.0
S=c1nn[nH]n1CC1CCCO1 (configuration not stated)	37.0	107.0	120.0	-17.8
CC(=O)Nc1ccccc1C(=O)c1n[nH]nc1-c1ccc(Cl)cc1	-9.3	100.0	106.0	.
Cc1cc(C)cc(NC(=O)CCNS(=O)(=O)c2ccc3[nH]c(=O)ccc3c2)c1	5.2	103.0	102.0	5.0
CCN(CC)c1ncc2c(=S)[nH]c(=S)[nH]c2n1	-5.8	100.0	92.0	-9.4
CCc1ccc(NC(=O)N(Cc2c[nH]c3ccccc23)C2CCCC2)cc1	5.0	101.0	106.0	-9.9
CN(C)C1(CNC(=O)Cc2n[nH]c(=O)c3ccccc23)CCCCC1	20.4	97.0	92.0	-19.6
COc1ccc(/C=N/n2cnc3c([nH]c4ccc(OC)cc43)c2=O)cc1	0.3	101.0	102.0	-10.0
CCC(CC)NC(=O)Cn1[nH]c(=O)c2ccccc2c1=O	-4.8	96.0	95.0	-9.2
CNc1nc(Oc2ccc(=O)[nH]n2)nc(N(C)C)n1	0.7	99.0	100.0	0.7
